CSC inhib – cancer stem cell inhibition | cancer stem cell-like cells viability, luminescence | inhibition, % at 7.5 µM | actives 1.1% (n = 300,000);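 active = mean at 75% or more and at least half the replicates too; inconclusive = mean and replicates disagree; tested in HMLE shEcad cells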;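 note: 0% = median of negative and 100% = median of positive control wells; the first replicate is given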
PABP polyA inh – PABP-poly(A) binding inhibition. P11940. PABP-poly(A) RNA binding, fluorescence polarization. inhibition, % at 35 µM. actives 1% (n = 290,000). AID 2014;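 active = 50% or more with normal probe brightness, or confirmed in later tests; inconclusive = above 50% with abnormal brightness, or retests that disagree; inactive = below 50% or failed in later tests; about a fifth of its hits are not listed in these tables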;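 note: calls also rest on retests at 20 µM and on dose response follow-up; controls were probe without protein and protein plus probe with vehicle; some compounds called inactive have numbers as strong as hits; many hits fall short of the cut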
Target sequence (P11940 whole entry, looked up): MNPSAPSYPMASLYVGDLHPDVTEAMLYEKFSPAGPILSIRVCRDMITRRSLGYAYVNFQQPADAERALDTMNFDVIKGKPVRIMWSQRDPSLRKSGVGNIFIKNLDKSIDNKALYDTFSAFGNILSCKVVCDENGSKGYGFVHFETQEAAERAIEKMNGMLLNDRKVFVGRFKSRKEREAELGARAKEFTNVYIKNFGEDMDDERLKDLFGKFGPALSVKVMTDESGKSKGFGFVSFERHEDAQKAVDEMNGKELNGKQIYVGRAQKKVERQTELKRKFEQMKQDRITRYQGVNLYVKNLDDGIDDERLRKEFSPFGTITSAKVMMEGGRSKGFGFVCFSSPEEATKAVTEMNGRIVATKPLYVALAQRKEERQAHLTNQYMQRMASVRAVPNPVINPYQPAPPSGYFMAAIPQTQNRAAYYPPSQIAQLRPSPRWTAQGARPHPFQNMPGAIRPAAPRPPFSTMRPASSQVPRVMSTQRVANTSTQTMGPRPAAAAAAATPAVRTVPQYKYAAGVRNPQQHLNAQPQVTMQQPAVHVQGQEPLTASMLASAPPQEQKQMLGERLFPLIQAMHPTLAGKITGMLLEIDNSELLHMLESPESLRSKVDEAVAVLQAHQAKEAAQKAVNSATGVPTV
Rce1 inhib – blocks yeast Ras-converting enzyme; calls only; yeast membranes, quenched prenylated peptide cleavage fluorescence; actives 0.27% (n = 290,000);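 active = fall in fluorescence gain of 50% or more versus controls, with final raw signal at or below 3038400; inconclusive = same 50% fall but final raw signal above 3038400; inactive = fall in fluorescence gain under 50%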;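 note: plate controls were neutral control wells for no effect and wells lacking membranes for full effect; tested at 10 µM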
Env fusion inh – HIV envelope-mediated fusion inhibition; HeLa-JRFL Env/CEM21 cell fusion, luciferase; inhibition, % at 12.3 µM; actives 1.1% (n = 360,000); AID 651610;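 active = mean replicate inhibition score of at least 50 and every replicate individually at or above 50; inconclusive = only one of the two criteria met; inactive = mean below 50 and not all replicates reaching 50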;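 note: 0% = plate neutral controls and 100% = maraviroc near 300 nM; one replicate is shown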
eIF4H inh – inhibitors of RNA binding by human eIF4H. Q15056. eIF4H fluorescence polarization binding assay. inhibition, % at 35 µM. actives 0.94% (n = 290,000). AID 2012;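 active = 50% or more with normal probe brightness, or confirmed in later tests; inconclusive = above 50% with abnormal brightness, or retests that disagree; inactive = below 50% or failed in later tests; about a fifth of its hits are not listed in these tables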;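 note: calls also rest on retests at 20 µM and on dose response follow-up; 0% = protein and probe with vehicle and 100% = probe without protein; strong numbers were not always called active; many hits fall short of the cut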
MT1-MMP act inh – inhibitors of human MT1-MMP activation; actives 0.061% (n = 360,000); P50281; GFP/RFP ratio change, % at 20 µM; AID 651647; HT1080 RFP-PRO-GFP cells, GFP/RFP ratio fluorescence, overnight; percent of plate control window, DMSO zero;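 active = GFP/RFP ratio change of at least 30% with cell ATP level not reduced by more than half and red fluorescence within 50% of control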; note: strong numbers were not always called active
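Material: RFP-PRO-GFP reporter HT1080 cells. Dosing: single-point 20 µM compound, 1% DMSO. Controls: DMSO and RFP-L50D-GFP cell wells. Timing: cells overnight before dosing, compound overnight, 37 °C, 5% CO2. Measure: GFP/RFP fluorescence ratio.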
UUG fidelity – modulators of start codon recognition fidelity in yeast; activity score, % at 18.7 µM; S. cerevisiae UUG-firefly luciferase reporter, luminescence/redox ratio; actives 0.13% (n = 350,000);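 active = replicate mean at a twofold rise or more, about +100% in these data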;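 note: firefly luciferase made from a UUG start codon reports start codon fidelity; reporter light over untreated wells divided by growth signal over untreated wells; some hits fall short of that in this replicate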
eIF4H inh retest – recorded beside eIF4H inh, whose call it bears; inhibition, %; compound at 20 µM; confirmation average;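 mean of two retest wells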
PABP polyA inh retest – recorded beside PABP polyA inh, whose call it bears; inhibition, %; compound at 20 µM; confirmation repeats;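 mean of two retest wells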
MT1-MMP act inh RFP – recorded beside MT1-MMP act inh, whose call it bears; RFP signal change, %; measured here: RFP expression control read;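 0 = vehicle wells; hits needed this value within 50% of zero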
An asterisk follows results filed as active; i = inactive; ? = inconclusive; . = not tested or not shown. This is a random part of the collection; 2.9% or so of the library scored in one or more.

The opening 3 records, to show the layout:
SMILES | CSC inhib | PABP polyA inh | Rce1 inhib | Env fusion inh | eIF4H inh | MT1-MMP act inh | MT1-MMP act inh RFP | UUG fidelity | others
COc1cc(CCC(=O)OCC(=O)Nc2ccc3c(c2)OCO3)cc(OC)c1OC | 0 | -8 | i | 7 | 12 | 2 | 1 | .
O=S(=O)(c1ccccc1)c1nc(-c2ccccc2)oc1N1CCCC1 | -2 | 4 | i | 0 | -9 | -8 | -11 | -11
O=C(NCc1ccc2c(c1)OCO2)c1ccc(Br)o1 | -15 | 3 | i | -11 | -7 | 3 | -1 | -10

Main list, repeating the preview:
SMILES | CSC inhib | PABP polyA inh | Rce1 inhib | Env fusion inh | eIF4H inh | MT1-MMP act inh | MT1-MMP act inh RFP | UUG fidelity | others
COc1cc(CCC(=O)OCC(=O)Nc2ccc3c(c2)OCO3)cc(OC)c1OC | 0 | -8 | i | 7 | 12 | 2 | 1 | .
O=S(=O)(c1ccccc1)c1nc(-c2ccccc2)oc1N1CCCC1 | -2 | 4 | i | 0 | -9 | -8 | -11 | -11
O=C(NCc1ccc2c(c1)OCO2)c1ccc(Br)o1 | -15 | 3 | i | -11 | -7 | 3 | -1 | -10
CC1CCN(C(=O)CSc2nc3ccccc3c(=O)[nH]2)CC1 | -11 | -2 | i | 11 | -6 | -3 | -3 | .
O=C1CN(C(=O)CSc2nc3c(cnn3-c3ccccc3)c(=O)[nH]2)c2ccccc2N1 | . | . | . | -17 | . | -2 | 0 | -8
O=C(Nc1nnc(-c2ccccc2)o1)c1nc2ccccc2s1 | 35 | 9 | i | 6 | 22 | 3 | 11 | -14
CCN(CC)C(=O)CSc1ncccc1-c1nc2ccccc2[nH]1 | -11 | 6 | i | -9 | -4 | -2 | 3 | -6
C[C@H]1CN([C@@H](C)CO)C(=O)CCCn2nncc2CO[C@@H]1CN(C)Cc1ccc(C(=O)O)cc1 | . | . | . | 11 | . | 0 | 4 | -28
O=C1C2C3CCCC3=C3CCCC3C2C(=O)N1c1ccc(F)cc1 (centres undefined) | -3 | 7 | . | . | -5 | -2 | 1 | 6
O=c1[nH]c(CN2CCN(S(=O)(=O)c3ccc4ccccc4c3)CC2)nc2ccccc12 | -24 | -7 | i | -5 | -7 | -7 | -1 | .
Cc1ccc(N2CC(NC(=O)N3CCN(C(=O)c4ccco4)CC3)CC2=O)cc1 (centres undefined) | -11 | . | i | -37 | . | 7 | 1 | -17
NC(=O)C1CCN(CC(=O)Nc2ccccn2)CC1 | -2 | -13 | i | -75 | -3 | 9 | 3 | -14
Nc1c(Cl)cc2c(c1Oc1ccccc1)C(=O)c1ccccc1C2=O | 21 | -1 | . | 125* | 4 | -15 | -2 | -1
N/C(=N\OC(=O)c1ccc(=O)n(Cc2ccc(Cl)cc2)c1)c1ccccn1 | 1 | 34 | i | 6 | 0 | -5 | -10 | -12
CCOC(=O)C(C(=O)OCC)N(C#N)c1nc(N(C)C)nc(N(C)C)n1 | -11 | -13 | i | 13 | 1 | -1 | 1 | -10
CCn1c(CNc2ccc(Cl)cc2)nnc1SCc1ccccc1 | 0 | 1 | i | -13 | -10 | 0 | -4 | -26
Oc1ccc(Br)cc1C=Nc1ccc2c3c(cccc13)CC2 | 6 | 3.5* | i | . | 100* | -175 | 7 | . | eIF4H inh retest=104*;PABP polyA inh retest=94*
COCC1CCN(C(=O)C2CCC(=O)N(Cc3cccc(F)c3)C2)CC1 (centres undefined) | -7 | 4 | i | 0 | -13 | -2 | -1 | 1
Cc1ccc(-c2nc3ccccc3c(=O)n2-c2c(C)n(C)n(-c3ccccc3)c2=O)cc1 | -11 | 3 | i | -1 | -3 | 2 | 5 | 1
COc1ccccc1OCCC(=O)Nc1cccc(S(=O)(=O)N2CCCCC2)c1 | 4 | -7 | i | 5 | -6 | -6 | -10 | -5
COc1ccccc1OCc1cc(C(=O)NCCN2CCCC(O)C2)no1 (centres undefined) | -3 | 7 | i | . | 8 | -1 | 1 | -11
CC(=O)c1ccc(S(=O)(=O)NCc2nnnn2-c2ccccc2)cc1 | -17 | 4 | i | -9 | 2 | 0 | 7 | -13
O=C(CN(Cc1ccccc1)S(=O)(=O)c1cccc(C(F)(F)F)c1)NC1CCCCC1 | -11 | -6 | i | 63* | -10 | -9 | -8 | -19
O=C(COC(=O)c1ccc(F)cc1Cl)NC1CCS(=O)(=O)C1 (centres undefined) | . | . | . | 4 | . | 1 | 0 | -17
CCN1CCN(c2ccc(S(=O)(=O)N3CCOCC3)cc2NC(=O)c2ccc(OCC(C)C)cc2)CC1 | . | . | . | 11 | . | -4 | -3 | -1
CC(C)CNc1ncnc2c1sc1nc(N3CCOCC3)c3c(c12)CC(C)(C)OC3 | -20 | -6 | i | . | 4 | -4 | -4 | 5
COc1ccc(N2CCN(S(=O)(=O)Cc3ccccc3)CC2)cc1 | -1 | -9 | i | -20 | -8 | 10 | 7 | .
CCOC(=O)c1sc(-c2ccccc2)cc1NC(=O)Nc1ccccc1 | 66 | 5 | i | 44 | -2 | -5 | -15 | -14
O=C(C1CCCN(S(=O)(=O)c2cccc3nsnc23)C1)N1CCCCCC1 (centres undefined) | -14 | 4 | i | 0 | -10 | 5 | 2 | .
Cc1cc(C)cc(OC(C)C(=O)Nc2ccccc2C(=O)NCc2cccnc2)c1 (centres undefined) | -2 | 4 | . | 36 | 5 | -7 | -2 | -17
O=C(CC1C(=O)NCCN1Cc1cccc(Oc2ccccc2)c1)NCCc1cscn1 (centres undefined) | 2 | 15 | i | -1 | 5 | -3 | 6 | .
Cc1ccc(NC(=O)c2ccccc2F)c(NC(=O)c2ccccc2F)c1 | 1 | . | i | -55 | . | 2 | 1 | -26
O=C(Nc1ccc2c(c1)OCO2)c1csc([C@H]2C[C@H](O)[C@@H](CO)O2)n1 | . | . | . | 20 | . | 2 | 2 | -13
Cc1ccc(S(=O)(=O)Nc2nsc(N)n2)cc1 | -8 | -6 | i | -43 | -1 | -6 | -2 | -18
CCC(C(=O)OCCOCCN(CC)CC)c1ccccc1 (centres undefined) | 8 | 4 | i | -9 | 14 | 3 | 3 | 2
CN(C(=O)COC(=O)c1cnc(Cl)c(Cl)c1)C1CCS(=O)(=O)C1 (centres undefined) | -14 | 6 | i | -4 | 3 | 1 | 5 | -9
COC(=O)[C@@H](Cc1c[nH]c2ccccc12)NCc1cccc(B(O)O)c1 | . | . | . | 11 | . | -3 | 2 | -5
CCN(CC)c1ccc(NC(=O)CN2CCN(S(=O)(=O)c3cc(Cl)ccc3OC)CC2)cc1 | 42 | -3 | i | 31 | 19 | 5 | -3 | -10
O=S(=O)(Nc1ccc(S(=O)(=O)N2CCOCC2)cc1)c1ccccc1 | -8 | -7 | i | . | -2 | 8 | 6 | -6
CC(=O)Nc1ccc2nc(-c3ccncc3)[nH]c2c1 | -15 | 2 | i | -31 | -10 | 9 | 4 | -21
O=C(Nc1ccccc1)c1cc2ccc3ccccc3c2s1 | 1 | -7 | i | -81 | -5 | -7 | -10 | -15
Cc1ccc([N+](=O)[O-])c2c1C(N1CCCCC1)C(C)(C)O2 (centres undefined) | -8 | 0 | i | 19 | -2 | 5 | 1 | .
COc1ccc(OCC(=O)NC(=S)Nc2ccc(S(=O)(=O)Nc3cc(C)on3)cc2)cc1 | -17 | -4 | i | ? | -10 | 2 | 2 | -15
CCOc1ccc(NC(=O)C2CCN(C(=O)N3CCOc4ccccc43)CC2)cc1 | -10 | 2 | i | . | 0 | 1 | 2 | -2
O=C(O)C1Cc2ccccc2CN1S(=O)(=O)c1ccc2ccccc2c1 (centres undefined) | 12 | 17 | i | . | 11 | 0 | 4 | -9
CCCn1c(=O)c2ccccc2n2c(SC(C)C(N)=O)nnc12 (centres undefined) | -6 | -6 | . | -2 | 1 | 5 | 6 | 6
Clc1ccc(SCc2cn3cccnc3n2)cc1 | -4 | -6 | i | -26 | 3 | 4 | -1 | -16
c1ccc(Nc2nc(-c3ccccc3)ns2)cc1 | 16 | -7 | i | -188 | -11 | -4 | -4 | -27
O=S(=O)(NCC1CCCO1)c1ccc(S(=O)(=O)N2CCc3ccccc3C2)cc1 (centres undefined) | 5 | -7 | i | -31 | -9 | 2 | 1 | 11
O=C(NCCCNC(=O)c1ccc(-c2cccc(Cl)c2)o1)c1cnccn1 | . | 14 | i | -10 | 4 | -2 | 0 | .

Remaining list, next part.
SMILES | CSC inhib | PABP polyA inh | Rce1 inhib | Env fusion inh | eIF4H inh | MT1-MMP act inh | MT1-MMP act inh RFP | UUG fidelity | others
CCN(CC)S(=O)(=O)c1ccc(Nc2nc3ccccc3n3nnnc23)cc1 | 8 | 8 | i | . | 7 | -5 | -1 | -14
Cc1ccc(NC(=O)n2ncc3c(C)cccc32)cc1F | -9 | -2 | i | -82 | -6 | -4 | 3 | .
COc1ccc(C2C(C(=O)OCC(=O)N3CCCCC3)CCC(=O)N2c2ccc(OC)cc2)cc1 (centres undefined) | -9 | 13 | i | -17 | 9 | 5 | 6 | 5
COc1cccc(CN2CCN(C(=O)c3cc(-c4ccccn4)nc4ccc(Cl)cc34)CC2)c1 | 12 | ? | i | -4 | ? | -6 | -3 | .
Cc1c(N=C2NC(=O)/C(=C/c3ccc(O)cc3)S2)c(=O)n(-c2ccccc2)n1C | -9 | 10 | i | -4 | 1 | -1 | -1 | .
CCOc1ccc(NC(=O)CSc2nnc(Cc3csc(C)n3)o2)cc1 | 41 | -7 | i | -3 | -1 | 3 | 4 | 1
Cc1cccc(C(=O)OCC(=O)NNC(=O)c2cccs2)c1O | -8 | . | i | -10 | . | 0 | 0 | 20
COc1ccccc1NS(=O)(=O)c1ccc(Cl)c(NC(=O)CN2C(=O)c3ccccc3C2=O)c1 | -10 | -4 | i | . | -2 | -2 | -3 | .
COc1cc(/C=C/C(=O)OCC(=O)NCc2ccccc2OC)ccc1O | 10 | . | i | -6 | . | 1 | 1 | .
CC(C)n1c(=O)nc(-c2ccccc2)c2cc3c(cc21)OCO3 | . | . | . | -49 | . | 2 | 4 | -16
COc1cccc(NC(=O)CSc2ncnc3c2cnn3Cc2ccccc2)c1 | 12 | -5 | i | 34 | -12 | -1 | -4 | -14
COC(=O)c1ccncc1C(=O)Nc1ccc(OC)cc1 | -11 | 6 | . | . | 3 | -2 | -1 | .
Cc1c(CCO)c(=O)[nH]n1C(=O)c1c(F)cccc1F | -10 | -1 | i | -100 | 2 | -3 | 3 | -16
Cc1cc(N2CCN(C)CC2)nc2ccc(NC(=O)CCC3CCCC3)cc12 | 44 | 0 | i | 17 | -1 | 3 | 7 | 5
O=C(COC(=O)/C=C/c1ccccc1Cl)Nc1cccnc1Cl | -4 | . | . | 0 | . | -2 | -3 | -9
O=C(COC(=O)CNS(=O)(=O)/C=C/c1ccccc1)Nc1cc(S(=O)(=O)N2CCCCC2)ccc1Cl | -5 | -9 | i | -12 | -17 | 2 | 3 | .
COc1cc(CCC(=O)OCC(=O)Nc2c(C)cc(C)cc2C)cc(OC)c1OC | 4 | 6 | i | -2 | 1 | 3 | 5 | .
O=S1(=O)CC(N2CCCCC2)CN1Cc1ccccc1 (centres undefined) | . | . | . | -10 | . | 4 | 4 | -9
CCOC(=O)C1=C(CSc2nncn2C)NC(=O)NC1c1cc(OCC)ccc1OCC (centres undefined) | -14 | 4 | . | . | -4 | -3 | 2 | -12
CCC(=O)Nc1nnc(SCC(=O)NCCc2ccc(OC)c(OC)c2)s1 | -5 | -7 | i | 23 | -6 | 0 | 2 | .
